Bioassay records from PubChem BioAssay.
MT1-MMP act inh: inhibitors of human MT1-MMP activation; HT1080 RFP-PRO-GFP cells, GFP/RFP ratio fluorescence, overnight; percent of plate control window, DMSO zero; AID 651647; GFP/RFP ratio change, % at 20 µM; P50281; 360,000 tested, 0.061% active;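 active = GFP/RFP ratio change of at least 30% with cell ATP level not reduced by more than half and red fluorescence within 50% of control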; note: strong numbers were not always called active
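system = RFP-PRO-GFP reporter HT1080 cells | dosing = 20 µM single dose, 1% DMSO | timing = overnight cell settling, then overnight compound exposure, 37 °C, 5% CO2 | read-out basis = GFP/RFP fluorescence ratio | controls = DMSO and RFP-L50D-GFP cell wells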
eIF4H inh: inhibitors of RNA binding by human eIF4H; Q15056; eIF4H fluorescence polarization binding assay; inhibition, % at 35 µM; 290,000 tested, 0.94% active;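 active = 50% or more with normal probe brightness, or confirmed in later tests; inconclusive = above 50% with abnormal brightness, or retests that disagree; inactive = below 50% or failed in later tests; about a fifth of its hits are not listed in these tables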;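 note: calls also rest on retests at 20 µM and on dose response follow-up; 0% = protein and probe with vehicle and 100% = probe without protein; strong numbers were not always called active; many hits fall short of the cut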
CSC inhib: blocks cancer stem cells. inhibition, % at 7.5 µM. 300,000 tested, 1.1% active. cancer stem cell-like cells viability, luminescence. AID 2717;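 active = mean at 75% or more and at least half the replicates too; inconclusive = mean and replicates disagree; tested in HMLE shEcad cells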;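 note: 0% = median of negative and 100% = median of positive control wells; the first replicate is given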
Env fusion inh: HIV envelope-mediated fusion inhibition; HeLa-JRFL Env/CEM21 cell fusion, luciferase; inhibition, % at 12.3 µM; 360,000 tested, 1.1% active; AID 651610;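 active = mean replicate inhibition score of at least 50 and every replicate individually at or above 50; inconclusive = only one of the two criteria met; inactive = mean below 50 and not all replicates reaching 50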;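 note: 0% = plate neutral controls and 100% = maraviroc near 300 nM; one replicate is shown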
Rce1 inhib: blocks yeast Ras-converting enzyme. calls only. yeast membranes, quenched prenylated peptide cleavage fluorescence. 290,000 tested, 0.27% active. AID 2563;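 active = fall in fluorescence gain of 50% or more versus controls, with final raw signal at or below 3038400; inconclusive = same 50% fall but final raw signal above 3038400; inactive = fall in fluorescence gain under 50%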;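 note: plate controls were neutral control wells for no effect and wells lacking membranes for full effect; tested at 10 µM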
PABP FP inh: blocks human PABP binding to poly(A) RNA | 290,000 tested, 1% active | P11940 | fluorescence polarization | inhibition, % at 35 µM;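 active = 50% or more with normal probe brightness, or confirmed in later tests; inconclusive = above 50% with abnormal brightness, or retests that disagree; inactive = below 50% or failed in later tests; about a fifth of its hits are not listed in these tables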;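 note: calls also rest on retests at 20 µM and on dose response follow-up; controls were probe without protein and protein plus probe with vehicle; some compounds called inactive have numbers as strong as hits; many hits fall short of the cut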
Target sequence (P11940 whole entry, looked up): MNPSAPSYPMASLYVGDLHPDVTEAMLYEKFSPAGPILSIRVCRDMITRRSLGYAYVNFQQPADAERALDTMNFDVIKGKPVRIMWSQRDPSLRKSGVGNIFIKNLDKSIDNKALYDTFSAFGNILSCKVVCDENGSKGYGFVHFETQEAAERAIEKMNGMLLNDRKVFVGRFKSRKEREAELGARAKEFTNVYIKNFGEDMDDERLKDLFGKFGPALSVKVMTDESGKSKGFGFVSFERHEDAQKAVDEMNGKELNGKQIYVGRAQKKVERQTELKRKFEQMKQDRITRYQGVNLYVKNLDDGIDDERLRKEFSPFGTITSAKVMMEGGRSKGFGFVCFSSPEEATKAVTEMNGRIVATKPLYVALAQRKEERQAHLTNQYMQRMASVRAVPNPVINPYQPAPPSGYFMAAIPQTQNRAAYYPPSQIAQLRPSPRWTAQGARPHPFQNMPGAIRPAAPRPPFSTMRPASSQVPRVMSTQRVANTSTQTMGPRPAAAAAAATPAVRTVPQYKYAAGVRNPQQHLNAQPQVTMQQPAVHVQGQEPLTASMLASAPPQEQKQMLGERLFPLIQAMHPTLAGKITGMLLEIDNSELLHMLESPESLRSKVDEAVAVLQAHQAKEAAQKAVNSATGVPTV
Yeast UUG start: alters start codon recognition fidelity in yeast; 350,000 tested, 0.13% active; activity score, % at 18.7 µM; S. cerevisiae UUG-firefly luciferase reporter, luminescence/redox ratio;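 active = replicate mean at a twofold rise or more, about +100% in these data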;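 note: firefly luciferase made from a UUG start codon reports start codon fidelity; reporter light over untreated wells divided by growth signal over untreated wells; some hits fall short of that in this replicate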
eIF4H inh retest: second read-out of eIF4H inh, no call of its own (marks repeat the call); inhibition, %; compound at 20 µM; confirmation average;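 mean of two retest wells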
PABP FP inh retest: further read-out of PABP FP inh, marked with its call; inhibition, %; compound at 20 µM; confirmation repeats;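 mean of two retest wells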
MT1-MMP act inh RFP: further read-out of MT1-MMP act inh, marked with its call; RFP signal change, %; measured here: RFP expression control read;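 0 = vehicle wells; hits needed this value within 50% of zero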
Starred values were filed as active, the others as inactive; i = inactive; ? = inconclusive; nt = no result given; + = active, no number. An excerpt (hit frequency here may not be typical).

SMILES	MT1-MMP act inh	MT1-MMP act inh RFP	eIF4H inh	CSC inhib	Env fusion inh	Rce1 inhib	PABP FP inh	Yeast UUG start	others
O=C(NCC1CCCO1)c1ccc2c(c1)C(=O)N(C1CCCCC1)C2=O (stereo not drawn)	-4	0	3	-3	nt	i	7	9
CCC(=O)Nc1ccc2c(c1)nc(CCN1CCN(c3ccccc3)CC1)n2C	5	-3	-6	-24	15	i	-9	-11
COc1ccc2nc(NCc3cccnc3)sc2c1	-1	-2	-10	2	-16	i	-8	-3
COc1cc(OC)c(C2=Nc3ccc(Br)cc3C(c3ccccc3)N2CC(=O)NN)cc1OC (stereo not drawn)	1	4	-6	-9	12	nt	-1	nt
O=C(CCNS(=O)(=O)c1cccs1)NCc1ccccc1	10	3	15	-9	nt	i	4	-6
O=C(CN(C(=O)CNC(=O)c1cccs1)c1ccc(F)cc1)NC1CCCC1	1	1	4	nt	-2	i	-6	-4
CCc1ccc(/C=C2/SC(=S)N(CCC(=O)NCCCN3CCOCC3)C2=O)cc1	-1	-4	-4	8	10	i	-12	-7
CC1(C)Oc2ccc(/C=C/C(=O)N3CCOCC3)c(O)c2C(N2CCOCC2)C1O (stereo not drawn)	nt	nt	-13	-16	nt	i	-18	nt
O=c1cc2c(nn1Cc1ccc(Cl)cc1)-c1ccccc1CC2	-5	-5	-5	11	-56	i	-7	-1
Cc1ccc(F)c(S(=O)(=O)NC(=O)C2(C)CCN2C(=O)Cc2ccccc2Cl)c1 (stereo not drawn)	0	4	nt	nt	2	nt	nt	-10
C=CCn1c(SCC(=O)c2ccc(CNC(C)=O)o2)nc2scc(C3CC3)c2c1=O	-4	1	77*	-7	2	i	28	nt	eIF4H inh retest=90*;PABP FP inh retest=23
CSCC[C@H](NC(=O)N1C[C@H]2C[C@@H](C1)c1cccc(=O)n1C2)C(=O)Nc1ccc(NC(C)=O)cc1	4	4	-6	1	nt	i	4	-5
Cc1ccc(-c2nc3cnccn3c2Nc2ccc3c(c2)OCCO3)o1	3	1	-10	2	22	i	3	-8
CC(=O)N1CCc2cc(S(=O)(=O)NC(C(=O)NCc3ccccc3)C(C)C)ccc21 (stereo not drawn)	-7	2	-2	nt	-15	nt	6	-6
Cc1cc(C)c(OCC(=O)Nc2nnc(-c3ccco3)o2)c(C)c1	1	-1	10	12	-8	i	4	nt
CCc1cc(/C(Cc2csc(C)n2)=N/O)c(O)cc1O	-11	-25	-10	-12	nt	i	-13	nt
O=c1c2ccccc2nc2n1C(CSc1ccccc1)CS2 (stereo not drawn)	-3	2	-2	-3	8	i	13	nt
Cc1ccc(C(=O)OC(C)C(=O)NCc2ccc3c(c2)OCO3)cc1S(=O)(=O)N1CCOCC1 (stereo not drawn)	-1	0	-8	13	4	i	2	0
O=C(CCNC(=O)N1CCn2c1nc1ccccc12)NCc1ccc(Cl)cc1	0	-6	-11	-3	8	i	-5	-20
Cc1ccccc1OCCNC(=O)CNC(=O)c1ccccc1O	3	3	-12	-3	nt	i	-4	-16
O=C(NCc1ccc2c(c1)OCO2)C(c1ccco1)N(C(=O)c1csnn1)c1ccccc1 (stereo not drawn)	4	-4	-4	-5	-30	i	-9	-12
COc1ccccc1Cn1c(=O)[nH]c2cccnc21	-1	-1	3	-5	nt	i	-13	19
CCN(CC)S(=O)(=O)c1ccc(C(=O)NC2=NCCS2)cc1	-4	-5	-1	6	2	i	5	-4
CCCCNc1nnc(Cc2ccc(Cl)cc2)c(=O)[nH]1	3	2	31	-2	3	i	0	-11
COCc1ccc(CN2CCC(n3nccc3NC(=O)c3ccc4c(c3)OCO4)CC2)o1	1	3	nt	nt	4	nt	nt	-15

A section from the list above, for reference:
SMILES	MT1-MMP act inh	MT1-MMP act inh RFP	eIF4H inh	CSC inhib	Env fusion inh	Rce1 inhib	PABP FP inh	Yeast UUG start	others
COc1ccc2nc(NCc3cccnc3)sc2c1	-1	-2	-10	2	-16	i	-8	-3
COc1cc(OC)c(C2=Nc3ccc(Br)cc3C(c3ccccc3)N2CC(=O)NN)cc1OC (stereo not drawn)	1	4	-6	-9	12	nt	-1	nt

Back to the main list, repeating the 2 entries before the break.
SMILES	MT1-MMP act inh	MT1-MMP act inh RFP	eIF4H inh	CSC inhib	Env fusion inh	Rce1 inhib	PABP FP inh	Yeast UUG start	others
CCCCNc1nnc(Cc2ccc(Cl)cc2)c(=O)[nH]1	3	2	31	-2	3	i	0	-11
COCc1ccc(CN2CCC(n3nccc3NC(=O)c3ccc4c(c3)OCO4)CC2)o1	1	3	nt	nt	4	nt	nt	-15
CN1CCC(=NNC(=O)C(=O)NC(C)(C)C)CC1	4	10	-4	-14	nt	i	-5	-2
CCOC(=O)CCCNC(=O)CN1C(=O)NC(c2ccccc2)(c2ccccc2)C1=O	-2	-3	4	-9	3	i	0	-1
CC(C)(C)OC(=O)N1CCN(C(=O)Cn2cc(CCO)nn2)CC1	-1	0	0	0	13	i	-1	-20
O=C(Nc1ccccc1N1CCOCC1)C1(c2ccc(Cl)cc2)CCC1	-10	-12	-8	-5	15	i	2	nt
Cc1ccccc1N1CCN(S(=O)(=O)N(C)C)CC1	-4	-2	-8	-5	7	i	23	nt
CS(=O)(=O)N1CCc2cc(C(=O)OCC(=O)c3ccccc3)ccc21	-5	5	-2	-13	nt	i	-1	-14
O=C(NCCc1ccccc1)[C@@H]1CC=C[C@@H]2CCN(Cc3ccccc3)C(=O)[C@@H]21	-1	-1	nt	-13	-16	i	nt	-4
Cc1cccc(N2C(=O)C(O)=C(C(=O)c3cccs3)C2c2ccc(C(C)C)cc2)n1 (stereo not drawn)	0	2	9	-1	20	i	0	nt
COC(=O)c1ccc(CSc2nnc(CS(=O)Cc3ccc(Br)cc3)n2-c2ccccc2)cc1 (stereo not drawn)	-4	-18	-4	7	18	i	-5	-2
CSc1nc(-c2ccc(N(C)C)cc2)c(C#N)c(=O)n1C	-96	-6	10	-7	-56	i	1	-8
CC(=O)N(C)c1ccc(NC(=O)/C=C/c2ccccc2Cl)cc1	4	-2	-2	0	nt	+	-2	1
CN1CCN(S(=O)(=O)Cc2ccc(Cl)cc2)CC1	1	6	-4	9	10	i	0	-2
O=c1cc(N2CCc3ccccc32)[nH]c(=O)n1-c1ccc(Cl)cc1	-6	5	-6	-7	-6	i	-8	nt
COc1ccc(-c2nnc(SCC(=O)Oc3ccc(C)cc3)o2)cc1	-1	-3	53	7	nt	i	-1	-18	eIF4H inh retest=18;PABP FP inh retest=0
CC(C)[C@H](Nc1ccc(S(=O)(=O)N2CCOCC2)cc1[N+](=O)[O-])C(=O)OCC(=O)N(C(C)C)C(C)C	1	-1	2	41	34	i	0	7
Cc1cccc(NC(=O)C2CCN(C(=O)NC3CCCCC3)CC2)c1	5	5	-9	-5	10	i	6	1
COc1ccccc1Cc1c(-c2ccccc2)nc2ccc(Br)cn12	-3	2	nt	nt	-3	nt	nt	-15
Cc1nc(SCC(=O)N2CCCCCC2)c2c(=O)n(C)c(=O)n(CC(C)C)c2n1	-4	-19	nt	nt	9	nt	nt	19
COc1ccc(CNC(=O)CS(=O)Cc2nc(-c3ccc(OC)c(OC)c3)oc2C)cc1 (stereo not drawn)	3	-1	-2	-3	2	i	6	-12
O=C(Nc1nnc([C@@H]2C[C@H](O)[C@@H](CO)O2)s1)Nc1ccccc1F	3	3	nt	nt	-8	nt	nt	-28
CC1=NN(C(=O)c2ccccc2)C(O)(c2ccc(Br)cc2)C1 (stereo not drawn)	3	1	-7	55	80*	i	6	nt
COc1ccc2[nH]c(=O)c(CN(Cc3nnnn3Cc3ccccc3)CC3CCCO3)cc2c1 (stereo not drawn)	-1	-1	-4	13	112*	i	15	-12
CC(C)(C)n1nc2c(c1NC(=O)c1cc3ccccc3o1)CS(=O)(=O)C2	4	3	6	0	3	i	5	-9
N#Cc1c(C(F)(F)F)cc(-c2ccccc2)nc1SCc1nc(N)nc(N2CCOCC2)n1	-227	0	?	12	9	i	?	-11
CCOC(=O)N1CCN(c2c(NCCCN(CC)CC)c(=O)c2=O)CC1	4	15	1	8	-91	i	-10	-12

Part of the list above in order of heavy-atom count, high to low.
SMILES	MT1-MMP act inh	MT1-MMP act inh RFP	eIF4H inh	CSC inhib	Env fusion inh	Rce1 inhib	PABP FP inh	Yeast UUG start	others
Cc1nc(SCC(=O)N2CCCCCC2)c2c(=O)n(C)c(=O)n(CC(C)C)c2n1	-4	-19	nt	nt	9	nt	nt	19
CCOC(=O)N1CCN(c2c(NCCCN(CC)CC)c(=O)c2=O)CC1	4	15	1	8	-91	i	-10	-12
COc1ccc(-c2nnc(SCC(=O)Oc3ccc(C)cc3)o2)cc1	-1	-3	53	7	nt	i	-1	-18	eIF4H inh retest=18;PABP FP inh retest=0
O=C(Nc1nnc([C@@H]2C[C@H](O)[C@@H](CO)O2)s1)Nc1ccccc1F	3	3	nt	nt	-8	nt	nt	-28
CC(=O)N(C)c1ccc(NC(=O)/C=C/c2ccccc2Cl)cc1	4	-2	-2	0	nt	+	-2	1
Cc1ccccc1N1CCN(S(=O)(=O)N(C)C)CC1	-4	-2	-8	-5	7	i	23	nt
CN1CCC(=NNC(=O)C(=O)NC(C)(C)C)CC1	4	10	-4	-14	nt	i	-5	-2

Next section.
SMILES	MT1-MMP act inh	MT1-MMP act inh RFP	eIF4H inh	CSC inhib	Env fusion inh	Rce1 inhib	PABP FP inh	Yeast UUG start	others
Cc1cc(C)c(C)c(S(=O)(=O)N2CCC(C(=O)N3CCCC3)CC2)c1C	1	0	nt	nt	9	nt	nt	-26
Cc1cccc(OCC(=O)Nc2cccc3nsnc23)c1	-1	1	0	6	nt	i	-4	3
O=S(=O)(c1cc(F)ccc1F)N1CCN(c2ncccn2)CC1	1	2	1	1	-15	i	-5	-12
COc1cccc([C@@H]2CC=C(C(=O)O)[C@H](c3ccc(Br)cc3)N2S(=O)(=O)c2ccc(C)cc2)c1	1	4	nt	nt	-12	nt	nt	6
COc1ccc(N2CC(C(=O)NC3CCSC3=O)CC2=O)cc1 (stereo not drawn)	0	2	-6	-2	2	i	-2	-25
NC(=O)CCn1nc(-c2ccccc2)c2ccccc2c1=O	7	-3	3	10	-40	i	-11	7
CC(C)OCCCNC(=O)CN1C(=O)/C(=C/c2ccccc2)Sc2ccccc21	-8	-4	-10	-21	-4	i	-8	nt
COc1cc(C)c(NC(=O)C(=S)NCCc2ccccc2)cc1C	-4	-6	-2	24	-8	i	12	-10
CC(C)(C)c1ccc(OC(=O)c2cccnc2)cc1	5	8	-6	-11	10	i	0	-16
N#CCCN1CCN(CCC#N)CC1	-1	0	-2	nt	nt	i	-2	-20
C=CCn1c(Cc2cccs2)nnc1SCC(=O)NCc1ccco1	0	3	17	-10	nt	i	7	-15
O=[N+]([O-])c1ccccc1Nc1nc(-c2cccnc2)cs1	3	-2	-10	nt	-15	i	11	-7
Cc1cc(/C=N/NC(N)=O)c(C)n1-c1ccc(F)cc1	1	2	3	1	-40	i	7	nt
COc1cc(C)c(C)cc1S(=O)(=O)N1CCCc2ccccc21	-3	-7	-5	18	-6	i	-1	3
CC(C)(C)OC(=O)C1=CC[C@@H](c2ccc(Cl)c(Cl)c2)N(S(=O)(=O)c2ccc(F)cc2)[C@H]1c1cccc(F)c1	-10	-16	nt	nt	93*	nt	nt	-7
COc1cc(C(=O)Nc2ccc(C(N)=O)cc2)c([N+](=O)[O-])cc1OC	3	5	6	-2	18	nt	5	nt
COC(=O)C1=C(CS(=O)(=O)c2ccc(OC)cc2)NC(=O)NC1c1ccccc1 (stereo not drawn)	-1	2	-10	7	-4	i	6	nt
